Screening results: PubChem, Sanford-Burnham Center for Chemical Genomics
KOR beta-arrestin-1 = KOR agonists, beta-arrestin recruitment, primary screen, cell-based, luminescence, uHTS (AID 1777) | KOR beta-arrestin recruitment, luminescence; higher % means a stronger effect | activation, % at 10 µM; hits with a dose series show EC50 in µM | hit rate 0.02% among 280,000; in the data active = activation above about 50%, passing the limit was not always enough; note: a part of the inactive calls stands beside numbers as strong as those of hits
TNAP activation fold = human TNAP enzyme activators, primary screen, biochemical, luminescent, no phosphate acceptor, uHTS (AID 1001); hit rate 0.03% among 200,000; one-dose activation fold at 20 µM; EC50 in µM for titrated hits; purified TNAP, luminescent activation assay, no phosphate acceptor; higher activation fold means a stronger effect; in the data active = activation fold from about 3, or a potency from the dose series; inactive = the rest, 99 in 100 with activation fold below about 1.6; note: many of its hits are not listed in these tables
KOR beta-arrestin-2 = kappa opioid receptor blockers – cell-based, luminescence, uHTS (AID 1778). KOR beta-arrestin recruitment, luminescence, antagonist mode; higher % means a stronger effect. inhibition, % at 10 µM; hits with a dose series show IC50 in µM. hit rate 0.091% among 290,000; note: strong numbers were not always called active
human PMI inhibition = MPI enzyme activity inhibition – biochemical, fluorescence intensity, coupled assay, primary screen (AID 1209) | one-dose inhibition, % at 20 µM; IC50 in µM for titrated hits | hit rate 0.42% among 190,000 | purified PMI enzyme, coupled fluorescence intensity; higher % means a stronger effect;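 note: plate controls were DMSO vehicle for no effect and wells lacking substrate for full effect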
XIAP displacement = small molecules displacing peptide from XIAP – biochemical, IAP family, fluorescence polarization (AID 1018) | XIAP BIR domain, fluorescence polarization peptide displacement; higher % means a stronger effect | displacement, % at 20 µM, or IC50 in µM where a hit was titrated | hit rate 0.007% among 200,000; in the data active = displacement above about 50%; note: a part of the inactive calls stands beside numbers as strong as those of hits
LYP phosphatase = PTPN22 lymphoid phosphatase activity blockers – biochemical, fluorescence intensity, uHTS (AID 1779) | recombinant LYP phosphatase, fluorescence intensity; higher % means a stronger effect | one-dose inhibition, % at 11.5 µM; IC50 in µM for titrated hits | hit rate 0.054% among 290,000;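 note: plate controls were vehicle with enzyme for no effect and no enzyme for full effect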
PMI inhibition = MPI inhibition at elevated mannose 6-phosphate – biochemical, fluorescence intensity, high mannose 6-phosphate, primary screen (AID 1220); recombinant PMI enzyme, coupled fluorescence intensity; higher % means a stronger effect; inhibition, % at 20 µM; hits with a dose series show IC50 in µM; hit rate 0.66% among 190,000
Active calls of the source: *; x = not tested or not shown; [ ] = dose if it differs, or a comment. Cut-off read from the data, not from the text of the source, unless noted: active = inhibition above about 50%; inactive = the rest.

canonical_smiles | KOR beta-arrestin-1 | TNAP activation fold | KOR beta-arrestin-2 | human PMI inhibition | XIAP displacement | LYP phosphatase | PMI inhibition
O=C(Nc1ccccc1N1CCN(C(=O)c2ccc(Cl)cc2)CC1)c1cc(Br)ccc1Cl | 4.2% | 1.1 | -34.2% | 8.1% | -17.5% | -3.4% | 2.4%
COc1cc(SC)ccc1C(=O)Nc1nc2ccccc2[nH]1 | 0.8% | x | -20.8% | x | x | -10.5% | x
CC1Cc2ccccc2N1C(=S)NC(=O)c1cccc(Br)c1 (configuration not stated) | 0.7% | 1.3 | -16.7% | 16.2% | -14.3% | -4.1% | -9.3%
Cc1cccc(Cc2cnc(N3C(=N)SC(C)C3=O)s2)c1 (configuration not stated) | -6.8% | 1.2 | 5.68µM* | 6.2% | 2.3% | 5.3% | 12.5%
Cc1ccc2c(C(=O)CCl)c(C)[nH]c2c1 | 2.2% | x | 26.6% | x | x | -6.3% | x
COc1ccc(NC(=O)Cn2nnc(-c3ccccc3NS(=O)(=O)c3ccc(OC)cc3)n2)cc1 | 4.6% | 0.7 | -161.7% | 2.8% | 0.4% | 1.6% | -9.4%
Cc1[nH]n(-c2ccccc2)c(=O)c1/C=N/NC(=O)c1cccc([N+](=O)[O-])c1 | -1.1% | 1 | -6.9% | 20.9% | -5.2% | -3.9% | -0.5%
COc1ccc(NC(=O)/C(Cl)=C(/Cl)S(=O)Cc2ccc(C)cc2)cn1 (configuration not stated) | -6.3% | 1.1 | 3.76µM* | -9.4% | -4.2% | 0.7% | -7.6%
OCCCNc1cc(-c2ccnc(Nc3cccc(Cl)c3)n2)ccn1 | 0.1% | x | -5.6% | x | x | -3.9% | x
CN(C)/C=C/c1c([N+](=O)[O-])c2ccc(O)cc2n1-c1ccccc1 | -0.5% | x | 2.1% | x | x | 0.9% | x
O=C(c1cc(Cl)c(=O)n(Cc2ccc(Cl)cc2)c1)N1CCOCC1 | 0.9% | 1 | 10.5% | 7.3% | -18.4% | -4.2% | 10.2%
O=C(CCl)N1N=C(c2cccs2)CC1c1ccco1 (configuration not stated) | 3.0% | 1.1 | -31.8% | 0.2% | -4.0% | -2.8% | 13.4%
CC(=O)Cn1ncc(Br)c(Br)c1=O | -5.1% | 1 | -15.2%[20 µM] | 4.4% | 0.5% | -9.4% | 1.0%
CCn1nc(C)cc1C(=O)NC1CCCc2c1cnn2-c1ccc(C)c(C)c1 (configuration not stated) | -8.8% | x | 42.2% | x | x | -0.7% | x
COc1cccc(CN(C)C(=O)c2cc(COc3ccc4ncccc4c3)on2)c1 | -6.3% | 1.1 | -9.2% | 1.0% | -4.0% | -3.4% | -0.5%
CCn1c(=O)c2c(cnn2C)c2ccccc21 | -0.9% | 1.1 | 1.8% | 6.4% | -0.8% | -8.6% | 0.2%
N=C1SC(c2ccccc2)C(=O)N1c1ncc(Cc2ccccc2)s1 (configuration not stated) | -5.8% | 1 | 1.3% | -3.0% | -13.2% | 0.1% | -0.9%
O=C(Nc1ccccc1Cl)/C(Cl)=C(\Cl)S(=O)c1ccccc1 (configuration not stated) | 1.4% | 1 | -8.6%[20 µM] | -0.8% | 6.7% | 11.7% | -2.3%
O=C(Nc1nnc(-c2ccc3c(c2)OCCO3)o1)c1ccc(Cc2ccccc2)cc1 | 1.8% | 1.1 | 51.8%* | -2.3% | -6.7% | -5.4% | -2.4%
Cc1ccc(C(=O)N/N=C/c2c(O)ccc3ccccc23)cn1 | -4.9% | x | -2.1% | x | x | -5.2% | x
COc1ccc(S(=O)(=O)Nc2cc(SCC(=O)O)c(O)c3ccccc23)cc1 | 3.0% | x | -51.7% | x | x | -6.8% | x
O=C(Cn1ncc(Cl)c(Cl)c1=O)c1ccc(Cl)cc1 | -2.2% | 1.1 | 43.4% | -4.5% | -2.2% | 0.9% | -6.7%
COc1ccccc1NS(=O)(=O)c1cccc(NC(=O)c2sc3ccccc3c2Cl)c1 | -3.1% | 1 | 8.5% | 13.7% | -2.0% | 2.9% | 11.8%
Cc1c(C#N)c(NC(=O)CCl)n(Cc2ccccc2)c1C | -5.8% | 1.1 | -7.3% | -9.5% | -12.0% | -9.7% | 4.2%
CC1=C(C(=O)OCc2ccc3c(c2)OCO3)C(c2ccc(F)cc2)NC(=O)N1 (configuration not stated) | 2.2% | 0.9 | -1.6% | -7.7% | -1.2% | -6.9% | -0.4%
Cc1cccc(NC(=O)/C=C/c2ccc([N+](=O)[O-])s2)c1 | -0.9% | 1 | 3.4% | 6.7% | -8.1% | -5.8% | 3.9%
COC(=O)c1ccc(Nc2c([N+](=O)[O-])c(=O)oc3ccccc23)cc1 | 0.3% | x | -34.4% | x | x | -1.6% | x
O=C(Nc1ccccc1)c1nc2ccccc2s1 | -0.7% | 1.1 | 4.4% | -1.0% | 9.6% | -2.7% | -2.8%
COc1cc(OC)cc(C(=O)Nc2nc(-c3ccccc3)c(-c3ccccc3)o2)c1 | -1.6% | 1 | 23.6% | -9.8% | -7.6% | 13.8% | -12.5%
O=C(CSc1n[nH]c(-c2ccccn2)n1)Nc1ccc(Cl)cc1 | 3.6% | x | -9.3% | x | x | -6.0% | x

The list continues.
Every second line gives: KOR beta-arrestin-1 | TNAP activation fold | KOR beta-arrestin-2 | human PMI inhibition | XIAP displacement | LYP phosphatase | PMI inhibition
Cc1ccc(S(=O)(=O)Nc2cc(C(C(=O)OC(C)C)C(=O)C(F)(F)F)c(O)c3ccccc23)c(C)c1 (configuration not stated)
  -2.1% | 1 | 5.7% | 17.6% | -4.7% | 5.5% | 37.5%
COc1ccc(-c2cc(=O)oc3c(C)c(OC(=O)c4cccs4)ccc23)cc1
  19.4% | 1.1 | -28.4% | 3.9% | -4.2% | -1.3% | -6.5%
CN(C)S(=O)(=O)c1cccc(NC(=O)c2ccc(COc3ccccc3)cc2)c1
  -3.5% | x | 1.9% | x | x | -2.6% | x
CCCCCOC(=O)C1=C(C)Nc2nnnn2C1c1ccc(OC)c(OC)c1OC (configuration not stated)
  3.1% | 1.1 | -3.5% | 15.7% | -7.5% | 0.2% | 17.0%
CN(C)C(=O)c1ccc(-n2nc(C(F)(F)F)c3c2CCCC3)cc1
  -1.5% | 1.1 | -5.3% | 7.4% | -24.1% | -6.9% | 7.2%
CCN1/C(=C/c2sc(-c3ccccc3C)c[n+]2C)Sc2ccccc21
  -5.5% | 1 | -12.0% | 22.5% | -4.1% | -8.7% | 19.2%
O=C(COc1ccc2c(-c3ccccc3)cc(=O)oc2c1)Nc1ccc(CCO)cc1
  -0.3% | x | -19.1% | x | x | -0.9% | x
CN(C)S(=O)(=O)c1cccc(NC(=O)CSc2cccc3cccnc23)c1
  2.3% | x | 0.6% | x | x | -7.4% | x
CCOC(=O)N1CCN(C(=O)c2ccc(Cn3c(=S)[nH]c4cc5c(cc4c3=O)OCO5)cc2)CC1
  -1.3% | 1 | -33.6% | 3.2% | -11.5% | 4.9% | 8.5%
CCc1ccc(S(=O)(=O)/N=C2\C=C(Nc3cccc(C(=O)O)c3)C(=O)c3ccccc32)cc1
  -4.0% | x | -31.5% | x | x | -4.8% | x
CCOc1cc(Br)cc(/C=N/NC(=O)c2cccnc2)c1O
  -3.4% | x | -6.8%[20 µM] | x | x | -11.9% | x
O=C(NC(=C(Cl)Cl)S(=O)(=O)c1ccc(Cl)cc1)c1ccccc1
  1.8% | x | -0.2% | x | x | 3.2% | x
O=C(Nc1cc(C(F)(F)F)cc(C(F)(F)F)c1)Nc1cnn(-c2ccc([N+](=O)[O-])cc2)c1C(F)(F)F
  3.9% | x | -14.7% | x | x | 0.6% | x
O=C(CCc1ccccc1)NNC(=S)NC(=O)c1ccccc1
  -0.9% | 1 | 25.5% | 18.4% | -2.3% | -8.0% | -10.4%
COc1ccc(C(=O)Nc2nc3ccccc3s2)c(OC)c1
  -2.1% | x | 3.0% | x | x | -6.2% | x
C=C1C(=O)O[C@@H]2C[C@@H](C)[C@@H]3C=CC(=O)[C@@]3(C)[C@@H](OC(C)=O)[C@H]12
  0.2% | x | 26.1% | x | x | -5.9% | x
COc1cc([N+](=O)[O-])cc(/C=C2/SC(=S)N(Cc3ccccc3)C2=O)c1O
  0.6% | x | 9.6% | x | x | -1.7% | x
COc1ccc(-c2cc3nc(CCl)[nH]c(=O)c3s2)cc1
  -3.5% | x | -12.5% | x | x | -17.0% | x
CCCc1nc2c(=O)n(C)c(=O)nc-2n(C)n1
  1.6% | 1.1 | -60.1% | 44.8% | -5.1% | 79.0%* | 13.2µM*
COc1ccc(CNC(=O)c2c(C)oc3c2C(=O)c2ccccc2C3=O)cc1
  0.9% | 1 | -59.0% | -62.9% | -4.0% | -6.4% | -26.9%
CCOC(=O)C(=Cc1ccc(F)cc1)C(=O)OCC
  3.3% | 1 | -0.8% | -12.8% | -22.8% | -7.6% | -9.2%
O=C(CSCc1ccccc1)N1CCc2ccccc21
  -1.9% | 1.1 | -14.6% | -3.4% | -3.2% | -4.7% | -2.7%
CCOc1nc(NC(C)C)nc(NC(C)C)n1
  0.3% | 1 | -3.2% | 7.8% | -6.5% | -5.0% | 14.1%
COc1cccc(CN(C)C(=O)CNC(=O)c2ccc(-c3ccccc3)cc2)c1OC
  -4.7% | x | -10.8% | x | x | 3.8% | x
Cc1cc(C)nc(Sc2ccc([N+](=O)[O-])cc2[N+](=O)[O-])n1
  -3.3% | 0.8 | 22.1% | 4.5% | -8.9% | -0.7% | 1.4%
Fc1ccc(NC(=S)NNc2ncc(C(F)(F)F)cc2Cl)c(F)c1
  -7.8% | 2.2 | 20.2% | -7.1% | -3.4% | -3.6% | -11.7%
O=C(Nc1nc(-c2ccccn2)cs1)c1cc(Cl)ccc1[N+](=O)[O-]
  -8.5% | 1.3 | 86.8%* | 26.7% | -11.7% | 2.6% | 9.0%
Cc1ccc(C(=O)CN2C(=O)c3ccccc3S2(=O)=O)cc1
  5.0% | x | 8.1% | x | x | -4.3% | x
COC(=O)c1cccc2c1-c1ccccc1/C2=N/O
  0.2% | 1 | -23.6% | 10.3% | -2.3% | -4.5% | 6.0%
O=C1C(=O)c2ccc(-c3ccccc3)cc2-c2ccccc21
  37.7% | 1 | -38.4% | -22.0% | 2.4% | 15.5% | 6.1%
COCCn1c(C)cc(C(=O)COC(=O)c2cccc(O)c2)c1C
  -4.0% | x | -5.1% | x | x | -5.4% | x
Cc1ccccc1NC1=C/C(=N\S(=O)(=O)c2ccc(C(=O)O)cc2)c2ccccc2C1=O
  18.8% | x | -55.7% | x | x | 1.2% | x
CCOc1ccc(-c2nnc(NC(=O)c3ccc(OCC(C)C)c(OC)c3)o2)cc1
  -0.8% | 1.1 | 21.4% | -14.9% | -1.9% | 2.2% | -5.1%
O=S(=O)(Nc1nc2ccccc2nc1N1CCN(c2ccccc2F)CC1)c1ccc(Cl)cc1
  15.3% | 1.1 | -78.7% | 7.5% | -14.6% | 5.3% | -6.9%
Oc1c(I)cc(I)c2cccnc12
  0.6% | 1 | -35.5% | -11.8% | -12.0% | -4.9% | 19.1%
Cc1ccccc1-n1nnnc1Sc1nnnn1-c1ccccc1
  -3.6% | 1 | -30.7% | 3.5% | -4.2% | -3.4% | 2.7%

Arranged by number of heavy atoms (lowest first): part of the list above.
Every second line gives: KOR beta-arrestin-1 | TNAP activation fold | KOR beta-arrestin-2 | human PMI inhibition | XIAP displacement | LYP phosphatase | PMI inhibition
Oc1c(I)cc(I)c2cccnc12
  0.6% | 1 | -35.5% | -11.8% | -12.0% | -4.9% | 19.1%
Cc1ccccc1-n1nnnc1Sc1nnnn1-c1ccccc1
  -3.6% | 1 | -30.7% | 3.5% | -4.2% | -3.4% | 2.7%
Cc1ccccc1NC1=C/C(=N\S(=O)(=O)c2ccc(C(=O)O)cc2)c2ccccc2C1=O
  18.8% | x | -55.7% | x | x | 1.2% | x

This is a subset (hit frequency here may not be typical).
